# Screens: PubChem BioAssay, National Center for Advancing Translational Sciences (NCATS)
# VDR inhibitor – Inhibitors of the vitamin D receptor (VDR): qHTS. Potency, µM, inactives show max response, negative = inhibition, most hits filed as inhibitors. AID 504847, 2011. actives 0.93% (n = 400,000). VDR-SRC2-3 peptide fluorescence polarization, 2 h; active = well fitted inhibition curve with a large enough effect; inconclusive = small, poorly fitted or top-dose-only effect, or another doubt; inactive = no such curve, though single readings can be large or run the other way; also: series mostly up to about 120 µM
# Target sequence (P11473 whole entry, looked up): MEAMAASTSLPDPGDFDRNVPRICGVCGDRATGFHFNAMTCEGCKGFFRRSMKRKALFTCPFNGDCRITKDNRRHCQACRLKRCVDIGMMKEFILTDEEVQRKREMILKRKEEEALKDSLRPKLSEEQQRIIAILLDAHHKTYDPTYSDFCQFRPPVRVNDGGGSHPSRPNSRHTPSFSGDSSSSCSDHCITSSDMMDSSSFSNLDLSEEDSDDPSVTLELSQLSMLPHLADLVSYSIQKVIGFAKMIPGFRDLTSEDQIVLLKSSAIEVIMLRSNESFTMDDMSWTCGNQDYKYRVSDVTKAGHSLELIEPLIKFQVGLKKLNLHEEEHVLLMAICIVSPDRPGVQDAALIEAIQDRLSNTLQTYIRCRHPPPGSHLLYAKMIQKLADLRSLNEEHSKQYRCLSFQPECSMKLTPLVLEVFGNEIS
#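 Fluorescence polarization assay measuring small-molecule disruption of VDR binding to the coregulator peptide SRC2-3. Compounds were pin-transferred (23 nl) into the reagent mix and incubated 2 h at room temperature before reading.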
# * hit, by the source's call; ? = inconclusive; & = joins results of further samples. % is scaled to controls: 0 for no effect and ±100 for the full control effect; potency is read from the fitted curve at half-maximal effect.
smiles | VDR inhibitor
CCc1cccc(CC)c1NC(=O)CSc1nc2ccc(N3C(=O)C4C(C3=O)[C@H]3C=C[C@@H]4C3)cc2s1 (stereo partly specified) | -16%
CCCn1c(N)c(N2CCCCC2)c(=O)n(CC(=O)Nc2ccccc2)c1=O | 16%
O=C(Nc1ccc(Br)cc1)c1ccc(F)c(S(=O)(=O)N2CCN(c3ccccn3)CC2)c1 | -2%
Cn1c(SCC(=O)Nc2nc3ccccc3s2)nnc1-c1ccccc1 | 14%
COc1ccc(CC(=O)NCc2ccc3c(c2)CCN3C(=O)c2ccc(C)cc2)cc1OC | 0%
O=C(C1CC(=O)N(c2ccc3c(c2)OCCO3)C1)N1CCN(S(=O)(=O)c2ccccc2F)CC1 (stereo unspecified) | -13%
CCOc1ccccc1NC(=O)Cn1cnc2c1c(=O)n(C)c(=O)n2C | -2%
N#Cc1ccc(CN2CCC3(CC2)CCN(C(=O)c2csnn2)CC3)cc1 | 9%
Cc1c(C(=O)N2CCOCC2)oc2c1-c1nn(CC(=O)NCc3cccc(Cl)c3)cc1CC2 | 11%
COc1cc(/C=C2\SC(=O)N(CC(=O)Nc3cccc(C)c3)C2=O)ccc1OC(C)C(=O)O (stereo unspecified) | -11%
Cc1c(O)ccc2c(CN3CCN(Cc4ccccc4)CC3)cc(=O)oc12 | 15%
CCCN(Cc1cccs1)C(=O)Nc1cc(C)ccc1OC | 12%

# A different layout for part of the listing above:
> COc1cc(/C=C2\SC(=O)N(CC(=O)Nc3cccc(C)c3)C2=O)ccc1OC(C)C(=O)O (stereo unspecified)
  VDR inhibitor = -11%
> Cn1c(SCC(=O)Nc2nc3ccccc3s2)nnc1-c1ccccc1
  VDR inhibitor = 14%
> O=C(C1CC(=O)N(c2ccc3c(c2)OCCO3)C1)N1CCN(S(=O)(=O)c2ccccc2F)CC1 (stereo unspecified)
  VDR inhibitor = -13%
> CCCN(Cc1cccs1)C(=O)Nc1cc(C)ccc1OC
  VDR inhibitor = 12%

# The list goes on.
smiles | VDR inhibitor
CCCCn1c(N)c(N(CC(C)C)C(=O)c2ccc(N3C(=O)c4ccccc4C3=O)cc2)c(=O)[nH]c1=O | ?
c1ccc(CCN(Cc2ccccc2)C2CCN(C3CCCC3)CC2)cc1 | -8%
O=C(NC1CCCC1)C(c1ccc(F)cc1)N(Cc1ccccc1)C(=O)c1csnn1 (stereo unspecified) | 21%
CC(O)c1cccc(NC(=O)CCC(=O)O)c1 (stereo unspecified) | 16%
Cn1c(=O)cc(SCC(=O)NCC2COc3ccccc3O2)c2ccccc21 (stereo unspecified) | 0%
COc1cccc(C(=O)NCC(=O)OCC(=O)NC2CCCCC2)c1 | 6%
CCN1CCCC1CNC(=O)Cn1cnc2sc(C)c(S(=O)(=O)N3CCC(C)CC3)c2c1=O (stereo unspecified) | 16%
COc1cc(CNCCc2ccccc2F)ccc1OCc1ccc(Cl)nc1 | -10%
CCN1C(=O)CSc2ccc(C(=O)NCc3ccc(OC)cc3)cc21 | 2%
CC(=O)NCC(=O)OC(C)C(=O)Nc1ccc(C(C)=O)cc1 (stereo unspecified) | -12%
CCCn1c2ccccc2c2cnn(CC(=O)NC(C)CC)c(=O)c21 (stereo unspecified) | 28%&2%
CCOC(=O)CN(C(=O)COc1nc(C)cc(C)c1C#N)c1ccc(Cl)cc1 | -5%
COc1ccccc1CNC(=O)CCC1N=C2c3ccccc3N=C(SCc3ccc(C)cc3C)N2C1=O (stereo unspecified) | -20%
CC1(C)CC(NC(=O)c2cccc([N+](=O)[O-])c2)CC(C)(C)N1 | -1%
COc1cc(C=O)ccc1OCc1cccc(Br)c1 | -13%
COC(=O)CCN(C(=O)C1CCN(S(=O)(=O)c2c(C)noc2/C=C/c2ccccc2F)CC1)c1ccccc1 | 1%
COc1ccc(C23CC4CC(CC(C4)C2)C3)cc1C(=O)NCCN(C)C | -2%
CCOC(=O)c1cc2sccc2n1CC(=O)O | 2%
Cc1cc(C(=O)NCc2ccc(C(=O)O)o2)c(C)o1 | 9%
O=C(Cn1cnc2c(oc3ccccc32)c1=O)c1ccccc1 | 5%
COc1ccc(-c2cc(C(F)(F)F)nc(SCCC(=O)N3CCN(C)CC3)n2)cc1 | 12%
Cc1ccc(-n2ncc3c(NNC(=O)c4ccccc4C)ncnc32)cc1 | 10%
CCOC(=O)C1=CN(Cc2cccc(F)c2)S(=O)(=O)N(CC)C1CCc1ccccc1 (stereo unspecified) | -7%
COc1cc(C(=O)Nc2ccc(S(=O)(=O)Nc3nccc(C)n3)cc2)c([N+](=O)[O-])cc1OC | -8%
CC(=O)Nc1ccc(S(=O)(=O)N2CCC(C(=O)NCCc3c[nH]c4ccccc34)CC2)cc1 | 18%
CCN(CC)c1ccc(NC(=O)c2cc(S(=O)(=O)N3CCc4ccccc43)cn2C)c(C)c1 | 13%
CN(C)c1ncc2nc(CCc3ccccc3)c(=O)n(Cc3ccc(F)cc3)c2n1 | -8%
CC(C)(C)Nc1ncnc2sc(-c3ccccc3)cc12 | -13%
CC(C)(C)c1ccc(C(=O)NC(=S)Nc2nc3c(s2)CCCC3)cc1 | -10%
CCN(CC)C1CC(=O)N(c2ccc(Br)cc2)C1=O (stereo unspecified) | ?
COc1nnc(-c2ccc(N3CCCCC3)c(NC(=O)c3ccccc3Cl)c2)c2ccccc12 | -14%
CCOC(=O)N1CCC(N2Cc3cccc(C(=O)N4CCN(c5cccc(Cl)c5)CC4)c3C2=O)CC1 | -2%
CC1=C(C(=O)O)N2C(=O)[C@@H](NC(=O)[C@@H](N)c3ccccc3)[C@@H]2SC1 | 1%
CCOc1ccc(OCC)c2sc(C)nc12 | -4%
CC(C(=O)NCC1(c2ccccc2)CCOCC1)N1CCOCC1 (stereo unspecified) | -2%
CCc1onc(C)c1C(=O)Nc1cc(C)ccc1OC | 20%
CCOC(=O)N1CCN(C(=O)c2ccc3oc(CCCc4ccccc4)nc3c2)CC1 | 11%
CCOc1ccccc1N(C)C(=O)c1sc2ncn(CC(=O)N3CCCCC3C)c(=O)c2c1C (stereo unspecified) | 16%
CC(C)c1ccc(S(=O)(=O)N2CCC(C(=O)N3CCN(c4cccc(Cl)c4)CC3)CC2)cc1 | 7%
Cc1noc(C)c1CSc1nc2ccccc2c(=O)n1-c1ccc(F)cc1F | -3%
Cc1ccc(Cl)cc1NC(=O)CSc1nccn1C | 3%
O=S(=O)(c1ccccc1Br)N1CCC(O)(c2cccnc2)CC1 | -3%
COc1ccc(OC2C(=O)N(Cc3ccc4c(c3)OCO4)C2c2cccs2)cc1 (stereo unspecified) | -14%
COc1ccc(CN(CC(=O)NCc2ccco2)C(=O)CCC(=O)Nc2nccs2)cc1 | 10%
CC(C)CN(C(=O)c1cccc(S(=O)(=O)N2CCN(C)CC2)c1)C1CCS(=O)(=O)C1 (stereo unspecified) | -4%
COc1ccc(/C=N/NC(=O)c2ccc(-c3ccccc3)cc2)cc1O | -1%
OCCNc1nc(Nc2ccccc2Oc2ccccc2)nc(N2CCCC2)n1 | -3%
COc1ccc(S(=O)(=O)Nc2ccc3oc4ncccc4c(=O)c3c2)cc1OC | -9%
O=C1CS(=O)(=O)N(Cc2ccc(F)cc2)c2ccccc21 | 79µM*
Cc1ccc(NC(=O)/C=C/c2ccc(C)o2)c(C)c1 | -9%
COc1ccc(C(CNC(=O)CCOc2ccccc2)N(C)C)cc1 (stereo unspecified) | -16%
CNC(=S)N1CCN(c2ccc(Cl)c(Cl)c2)CC1 | 0%
CCC(=O)N1c2ccc(S(=O)(=O)NCc3ccccc3)cc2CC1C (stereo unspecified) | 12%
CCCCCCSc1ccc([C@@H]2[C@H]3C(=O)N(CC)C(=O)[C@H]3[C@]3(C(=O)OC)CCCCN23)cc1 | -3%
Cc1ccccc1N1CCN(C2CCCN(C(=O)c3cn4c(C)cccc4n3)C2)CC1 (stereo unspecified) | 8%
O=C(COC(=O)c1c(Cl)cccc1Cl)NC1CCCCCCC1 | -18%
Cc1ccc(C(=O)NCCC(=O)N2CCC3(CC2)NCCc2[nH]cnc23)cc1 | -9%
CS(=O)(=O)N1CCC(C(=O)Nc2ccc(F)c(Cl)c2)CC1 | 11%
COc1cc(C(C(=O)NC(C)(C)C)N(C(=O)CNC(=O)c2cccs2)c2cccnc2)cc(OC)c1OC (stereo unspecified) | 0%
COC(=O)c1ccc(CSc2nnnn2Cc2ccccc2)cc1 | 2%

# Reprinted at random: 3 entries already listed
smiles | VDR inhibitor
COc1cc(C(C(=O)NC(C)(C)C)N(C(=O)CNC(=O)c2cccs2)c2cccnc2)cc(OC)c1OC (stereo unspecified) | 0%
Cc1ccc(NC(=O)/C=C/c2ccc(C)o2)c(C)c1 | -9%
CS(=O)(=O)N1CCC(C(=O)Nc2ccc(F)c(Cl)c2)CC1 | 11%

# Records listed so far that bear a hit mark in VDR inhibitor:
smiles | VDR inhibitor
O=C1CS(=O)(=O)N(Cc2ccc(F)cc2)c2ccccc21 | 79µM*

# Next part
canonical_smiles,VDR inhibitor
O=C1CC(c2ccccc2)Cc2nc(N3CCc4ccccc4C3)ncc21 (stereo unspecified),-2%
O=C(/C=C/c1ccc(F)cc1)NCCc1ccc2c(c1)OCCO2,-1%
O=C(O)c1ccc(NC(=S)NC(=O)c2ccc(-c3ccccc3)cc2)cc1,-6%
COc1ccc(C2CC(c3ccc(Br)cc3)Nc3nc(N)nn32)cc1 (stereo unspecified),-8%
COc1ccc(-c2cc(C(=O)NCc3ccco3)c3ccccc3n2)c(OC)c1,15%
CC(=O)Nc1nc(-c2ccc3c(c2)CCO3)cs1,4%
S=C1NCCOCCOCCOCCNC(=S)NCCOCCOCCOCCN1,1%
CCN(CC)CCP(=O)(c1ccccc1)c1ccccc1,-15%
O=C(NCc1cn2ccsc2n1)c1c(F)cccc1Cl,-6%
Cc1ccc(NC(=O)c2cc(S(=O)(=O)c3ccccc3)ccc2Cl)cc1,28%
Cc1c(Cl)cccc1NC(=S)NCc1cccs1,7%
CC1(C)O[C@H]2C[C@@H]3[C@H]4CCC5=CC(=O)C=C[C@]5(C)[C@@]4(F)[C@@H](O)C[C@]3(C)[C@]2(C(=O)CO)O1,-10%
O=C(Cc1csc(N2CCOCC2)n1)N/N=C/c1ccc(O)c(O)c1O,10%
CCCCN(C(=O)c1ccc([N+](=O)[O-])s1)c1c(N)n(CC(C)C)c(=O)[nH]c1=O,-23%
CC(C)CC(=O)Nc1cccc(-c2cn3ccsc3n2)c1,6%
Cc1nc(N2CCN(c3ccccc3O)CC2)c2c(-c3ccccc3)csc2n1,18%
CCOC(=O)c1ccc(N2C(=O)c3n[nH]c(C)c3C2c2ccccc2OC)cc1 (stereo unspecified),-9%
O=C(CCC(=O)Nc1ccc(F)cc1)N/N=C/c1cccnc1,9%
O=C(Cc1c(O)c2ccccc2oc1=O)c1ccc(C(F)(F)F)cc1,-28%
CC(C)CCNC(=O)NC(=O)CSc1ncccn1,-8%
CCc1cc2cc(C(=O)Nc3ccc(F)cc3)sc2s1,7%
N#Cc1c(C(F)(F)F)cc(-c2ccc(F)cc2)[nH]c1=O,2%
Cc1ccc(-n2c(-c3cc(-c4ccco4)[nH]n3)n[nH]c2=S)c(Br)c1,3%
CC1(c2nnc(-c3ccc(F)cc3)o2)CC(c2c(Cl)cccc2Cl)=NO1 (stereo unspecified),-2%
CC(C)C(C(=O)Nc1nccs1)c1ccc(Cl)cc1 (stereo unspecified),7%
O=C(O)c1ccc(Cl)c(S(=O)(=O)NC(Cc2c[nH]c3ccccc23)C(=O)O)c1 (stereo unspecified),-2%
O=C(c1ccc(Br)cc1)N1CCC(c2nc3ccccc3s2)CC1,9%
CCOc1cc(NC(=S)NCc2ccco2)c(OCC)cc1NC(=O)CC(C)C,7%
COc1cc2c(cc1NC(=O)C1CCCO1)oc1ccccc12 (stereo unspecified),-9%
NC(=O)c1ccc(Oc2ccc(C(N)=O)cc2)cc1,11%
CC(C)NC(=O)N1CC(c2ccccc2)C(c2ccc(Cl)cc2)=N1 (stereo unspecified),4%
O=C(NNS(=O)(=O)c1ccccc1[N+](=O)[O-])c1ccc(F)cc1,-4%
CCCc1cc(=O)[nH]c2nnc(SCC(=O)NCc3ccc4c(c3)OCO4)n12,0%
COCCN(CCOC)C(=O)CCn1c(=O)oc2ccccc21,-11%
COc1ccc(N2CC(C(=O)Nc3nnc(Cc4ccccc4)s3)CC2=O)cc1 (stereo unspecified),-13%
Cc1ccc(C2C(C(=O)c3cccs3)=C(O)C(=O)N2c2nnc(C)s2)cc1 (stereo unspecified),22%
CC1=C(C)CC(C(=O)Nc2nc(C)cs2)C(C(=O)O)C1 (stereo unspecified),-21%
CCOC(=O)c1ccc(NC(C)=O)c([N+](=O)[O-])c1,14%
CC(=O)Nc1ccc(NC(=O)C2CC(=O)N(C(C)C)C2)cc1 (stereo unspecified),-16%
CC(C)c1ccc(CNCCCSc2ncccn2)cc1,-11%
C/C(=N\NC(=O)c1n[nH]c2c1CCC2)c1ccco1,-1%
CCOc1cc(/C=N/NC(=O)c2cccc(S(=O)(=O)N3CCOCC3)c2)ccc1OCC(=O)N(C)C,1%
COC(=O)C1CCN(c2cnccn2)CC1,-27%
Cc1c(C)c2c(OCC(=O)N[C@@H](C)C(=O)O)cc3c(c2oc1=O)CCC(C)(C)O3,-22%
CCCN1CCN(CCCNC(=O)Cn2nc(C)n3c(cc4cc(OC)ccc43)c2=O)CC1,14%
O=C(NC(NC(=S)Nc1ccccc1O)C(Cl)(Cl)Cl)c1ccco1 (stereo unspecified),-13%
Cc1ccc(N2CCN(c3ccc(C)cc3)C2c2cccnc2)cc1,-9%
CCCCC(CC)C(=O)Nc1cc(C(=O)NCCC)ccc1N1CCC2(CC1)CC(c1ccccc1)=NO2 (stereo unspecified),0%
COC(=O)C(c1ccccc1)C1(O)CC(C)N(C)CC1C (stereo unspecified),8%
CCOc1ccccc1N1CCN(S(=O)(=O)c2ccc3c4c(cccc24)C(=O)N3)CC1,1%

# Not all compounds are listed, so the mix of outcomes need not match the whole.
